Yeast UUG start = yeast start codon fidelity modulation | activity score, % at 18.7 µM | AID 602363 | S. cerevisiae UUG-firefly luciferase reporter, luminescence/redox ratio | 350,000 tested, 0.13% active;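 active = replicate mean at a twofold rise or more, about +100% in these data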;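 note: firefly luciferase made from a UUG start codon reports start codon fidelity; reporter light over untreated wells divided by growth signal over untreated wells; some hits fall short of that in this replicate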
CSC inhib = cancer stem cell inhibition. cancer stem cell-like cells viability, luminescence. inhibition, % at 7.5 µM. 300,000 tested, 1.1% active;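 active = mean at 75% or more and at least half the replicates too; inconclusive = mean and replicates disagree; tested in HMLE shEcad cells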;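 note: 0% = median of negative and 100% = median of positive control wells; the first replicate is given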
Env fusion inh = HIV envelope-mediated fusion inhibition | HeLa-JRFL Env/CEM21 cell fusion, luciferase | inhibition, % at 12.3 µM | 360,000 tested, 1.1% active | AID 651610;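 active = mean replicate inhibition score of at least 50 and every replicate individually at or above 50; inconclusive = only one of the two criteria met; inactive = mean below 50 and not all replicates reaching 50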;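 note: 0% = plate neutral controls and 100% = maraviroc near 300 nM; one replicate is shown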
PABP FP inh = blocks human PABP binding to poly(A) RNA; 290,000 tested, 1% active; fluorescence polarization; inhibition, % at 35 µM; P11940; AID 2014;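 active = 50% or more with normal probe brightness, or confirmed in later tests; inconclusive = above 50% with abnormal brightness, or retests that disagree; inactive = below 50% or failed in later tests; about a fifth of its hits are not listed in these tables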;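 note: calls also rest on retests at 20 µM and on dose response follow-up; controls were probe without protein and protein plus probe with vehicle; some compounds called inactive have numbers as strong as hits; many hits fall short of the cut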
eIF4H FP inh = inhibitors of RNA binding by human eIF4H. Q15056. eIF4H fluorescence polarization binding assay. inhibition, % at 35 µM. 290,000 tested, 0.94% active. AID 2012;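 active = 50% or more with normal probe brightness, or confirmed in later tests; inconclusive = above 50% with abnormal brightness, or retests that disagree; inactive = below 50% or failed in later tests; about a fifth of its hits are not listed in these tables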;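 note: calls also rest on retests at 20 µM and on dose response follow-up; 0% = protein and probe with vehicle and 100% = probe without protein; strong numbers were not always called active; many hits fall short of the cut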
Rce1 inh = inhibitors of yeast Ras-converting enzyme. 290,000 tested, 0.27% active. yeast membranes, quenched prenylated peptide cleavage fluorescence. calls only. AID 2563;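 active = fall in fluorescence gain of 50% or more versus controls, with final raw signal at or below 3038400; inconclusive = same 50% fall but final raw signal above 3038400; inactive = fall in fluorescence gain under 50%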;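 note: plate controls were neutral control wells for no effect and wells lacking membranes for full effect; tested at 10 µM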
Target sequence (Q03530 whole entry, looked up): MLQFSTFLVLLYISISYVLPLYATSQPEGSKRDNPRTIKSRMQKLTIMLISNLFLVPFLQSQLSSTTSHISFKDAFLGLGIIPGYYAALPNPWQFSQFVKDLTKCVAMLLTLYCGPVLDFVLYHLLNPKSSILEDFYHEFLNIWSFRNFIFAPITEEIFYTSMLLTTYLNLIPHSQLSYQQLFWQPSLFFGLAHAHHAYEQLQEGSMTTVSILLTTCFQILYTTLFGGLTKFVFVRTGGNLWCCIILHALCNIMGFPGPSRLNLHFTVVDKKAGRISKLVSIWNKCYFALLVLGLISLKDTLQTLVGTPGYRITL
MT1-MMP act inh = MT1-MMP (human) activation inhibition; P50281; HT1080 RFP-PRO-GFP cells, GFP/RFP ratio fluorescence, overnight; percent of plate control window, DMSO zero; GFP/RFP ratio change, % at 20 µM; 360,000 tested, 0.061% active;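 active = GFP/RFP ratio change of at least 30% with cell ATP level not reduced by more than half and red fluorescence within 50% of control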; note: strong numbers were not always called active
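Assay system: HT1080 cells carrying an RFP-PRO-GFP reporter | Dosing: Single dose of 20 µM compound, 1% DMSO final | Incubation: Cells overnight before dosing, compound overnight, 37 °C, 5% CO2 | Evaluation: GFP/RFP fluorescence ratio | Control set: DMSO and RFP-L50D-GFP cell wells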
eIF4H FP inh retest = also measured in eIF4H FP inh; calls as there; inhibition, %; compound at 20 µM; confirmation average;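 mean of two retest wells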
PABP FP inh retest = second read-out of PABP FP inh, no call of its own (marks repeat the call); inhibition, %; compound at 20 µM; confirmation repeats;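 mean of two retest wells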
MT1-MMP act inh RFP = further read-out of MT1-MMP act inh, marked with its call; RFP signal change, %; measured here: RFP expression control read;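 0 = vehicle wells; hits needed this value within 50% of zero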
Active calls of the source: *; & = joins results of further samples. A portion of the library, so the mix of outcomes need not match the whole.

For COCCN1C(=O)c2ccc(C(=O)O)cc2C1=O the results were Yeast UUG start -18, CSC inhib 2, Env fusion inh 2, PABP FP inh 4, eIF4H FP inh 0, Rce1 inh inactive, MT1-MMP act inh 1 and MT1-MMP act inh RFP 3.
Screening Cc1nc(NC(=O)/C=C/c2ccc(F)cc2)sc1C(=O)N(C)C returned CSC inhib 2, PABP FP inh 8, eIF4H FP inh -2, Rce1 inh inactive, MT1-MMP act inh 2 and MT1-MMP act inh RFP 3.
Screening CCNC(=O)OCC(CC)NC(=O)OCC(C)C (stereo not drawn) returned CSC inhib -15, PABP FP inh -17, eIF4H FP inh -7, Rce1 inh inactive, MT1-MMP act inh 0 and MT1-MMP act inh RFP 3.
Screening O=C(O)CCn1cc(-c2ccc(Cl)cc2)nc1-c1ccncc1 returned Yeast UUG start -12, CSC inhib -1, Env fusion inh -7, MT1-MMP act inh 5 and MT1-MMP act inh RFP 8.
Screening O=S(=O)(c1ccc(SCCOc2ccc(F)cc2)nc1)N1CCCC1 returned Yeast UUG start -11, CSC inhib 19, MT1-MMP act inh -1 and MT1-MMP act inh RFP -11.
Screening CC(=O)c1cccc(N2C(=O)C3C(C(=O)Nc4cc(C)on4)C4(C)C=CC3(O4)C2C(=O)NC(C)(C)C)c1 (stereo not drawn) returned Yeast UUG start 10, CSC inhib 2, Env fusion inh -33, PABP FP inh 1, eIF4H FP inh -15, Rce1 inh inactive, MT1-MMP act inh 3 and MT1-MMP act inh RFP 5.
For FC(F)(F)c1cccc(-c2nnc3ccc(C(F)(F)F)cn23)c1 the results were Yeast UUG start 7, CSC inhib 1, Env fusion inh -104, PABP FP inh 2, eIF4H FP inh 1, Rce1 inh inactive, MT1-MMP act inh 0 and MT1-MMP act inh RFP 1.
For CCOC(=O)c1nn(-c2ccc(F)cc2)c2nc(-c3ccccc3)c(C#N)c(=O)n12 the results were Yeast UUG start -10, CSC inhib 6, Env fusion inh 20, PABP FP inh -8, eIF4H FP inh -6, Rce1 inh inactive, MT1-MMP act inh -6 and MT1-MMP act inh RFP -3.
For O=[N+]([O-])c1ccc2nccn2c1 the results were Yeast UUG start -22, CSC inhib -18, Env fusion inh 14, PABP FP inh 3, eIF4H FP inh 4, Rce1 inh inactive, MT1-MMP act inh -5 and MT1-MMP act inh RFP 2.
Screening CCCCOC(=O)c1cc(=O)[nH]c2ccccc12 returned CSC inhib -4, PABP FP inh 5, eIF4H FP inh 1, Rce1 inh inactive, MT1-MMP act inh -2 and MT1-MMP act inh RFP 3.
Screening COC(=O)c1ccccc1NC(=O)c1cccc(NC(=O)CSCc2ccccc2)c1C returned CSC inhib -19, Env fusion inh 4, PABP FP inh 3, eIF4H FP inh -9, Rce1 inh inactive, MT1-MMP act inh 1 and MT1-MMP act inh RFP 0.
`O=C(Nc1cc(C(F)(F)F)ccc1N1CCCC1)c1ccc2c(c1)OCO2` gave Yeast UUG start -18, CSC inhib 0, Env fusion inh inconclusive, PABP FP inh -3, eIF4H FP inh -8, MT1-MMP act inh 1 and MT1-MMP act inh RFP 0.
For CCOC(=O)/C(C(N)=NCC(C)C)=C(/O)c1ccccc1 the results were Yeast UUG start -15, CSC inhib 17, Env fusion inh -35, PABP FP inh -2, eIF4H FP inh 0, Rce1 inh inactive, MT1-MMP act inh 4 and MT1-MMP act inh RFP 1.
For CCOC(=O)N(C)C[C@@H]1OCc2cnnn2CCCC(=O)N([C@H](C)CO)C[C@H]1C the results were Yeast UUG start -18&6, Env fusion inh 8, MT1-MMP act inh 4 and MT1-MMP act inh RFP 8.
Screening OCCCNc1ncnc2c1ncn2[C@H]1CN(Cc2cccs2)C[C@@H](CO)O1 returned Yeast UUG start -9, Env fusion inh -43, MT1-MMP act inh -2 and MT1-MMP act inh RFP 0.
`CCCc1nnc2c(N(C)S(=O)(=O)c3ccc(C)cc3)nc3ccccc3n12` gave Env fusion inh 15, PABP FP inh 5, eIF4H FP inh 6, Rce1 inh inactive, MT1-MMP act inh 2 and MT1-MMP act inh RFP 0.
O=C(NCCc1ccccc1F)c1ccc2c(c1)OCCO2 was read as Yeast UUG start -92, CSC inhib 1, Env fusion inh 76*, PABP FP inh -3, eIF4H FP inh -1, Rce1 inh inactive, MT1-MMP act inh 0 and MT1-MMP act inh RFP 0.
Screening COC(=O)C(C)Sc1nc(N)c(NC(=O)c2ccco2)c(=O)[nH]1 (stereo not drawn) returned Yeast UUG start -9, CSC inhib -7, Env fusion inh -7, PABP FP inh -7, eIF4H FP inh 3, Rce1 inh inactive, MT1-MMP act inh 8 and MT1-MMP act inh RFP 9.
For CN(CC(=O)Nc1ccc(Cl)cc1)C(=O)CNC(=O)c1ccc(Br)o1 the results were Yeast UUG start -11, CSC inhib -13, Env fusion inh 5, Rce1 inh inactive, MT1-MMP act inh 1 and MT1-MMP act inh RFP 4.
COc1cc(C(=O)NCCOc2cc(C)cc(C)c2)c(Br)c(OC)c1OC was read as Yeast UUG start 11, CSC inhib 37, PABP FP inh -10, eIF4H FP inh 10, Rce1 inh inactive, MT1-MMP act inh 1 and MT1-MMP act inh RFP -3.

Reprinted at random: 2 compounds from above.
`O=C(Nc1cc(C(F)(F)F)ccc1N1CCCC1)c1ccc2c(c1)OCO2` gave Yeast UUG start -18, CSC inhib 0, Env fusion inh inconclusive, PABP FP inh -3, eIF4H FP inh -8, MT1-MMP act inh 1 and MT1-MMP act inh RFP 0.
Screening O=S(=O)(c1ccc(SCCOc2ccc(F)cc2)nc1)N1CCCC1 returned Yeast UUG start -11, CSC inhib 19, MT1-MMP act inh -1 and MT1-MMP act inh RFP -11.

The results go on:
Clc1ccc(-c2csc(N3CCc4ccccc4C3)n2)cc1 was read as Yeast UUG start -18, CSC inhib -6, PABP FP inh 1, eIF4H FP inh -2, Rce1 inh inactive, MT1-MMP act inh 1 and MT1-MMP act inh RFP 1.
For CCOC(=O)C1(Cc2ccccc2)CCN(Cc2cc(=O)c3ccccc3[nH]2)CC1 the results were CSC inhib -5, Env fusion inh 10, PABP FP inh 7, eIF4H FP inh -7, Rce1 inh inactive, MT1-MMP act inh -2 and MT1-MMP act inh RFP 0.
O=C1c2ccccc2C(=O)N1CCC(O)C[N+](=O)[O-] (stereo not drawn) was read as Env fusion inh -13, PABP FP inh 6, eIF4H FP inh -4, Rce1 inh inactive, MT1-MMP act inh 3 and MT1-MMP act inh RFP 8.
For Cc1cc(N2C(=O)C=CC2=O)c([N+](=O)[O-])cc1C the results were Yeast UUG start -47, CSC inhib inconclusive, PABP FP inh -3, eIF4H FP inh 100, Rce1 inh inactive, MT1-MMP act inh -2, eIF4H FP inh retest 0, PABP FP inh retest -7 and MT1-MMP act inh RFP 2.
Cc1ccc(C(F)(F)F)cc1NC(N)=S was read as CSC inhib -14, Env fusion inh -5, PABP FP inh 9, eIF4H FP inh 2, Rce1 inh inactive, MT1-MMP act inh -3 and MT1-MMP act inh RFP 2.
For COc1ccc(C(=O)NC(=S)Nc2ccc(S(=O)(=O)Nc3cc(OC)ncn3)cc2)cc1 the results were Yeast UUG start -10, CSC inhib -5, Env fusion inh -1, PABP FP inh 9, eIF4H FP inh -9, MT1-MMP act inh 0 and MT1-MMP act inh RFP -3.
`CCOC(=O)C1CCCCN1S(=O)(=O)c1ccc2c(c1)CC(C)N2C(=O)C1CCC1` (stereo not drawn) gave Yeast UUG start 1, CSC inhib 1, Env fusion inh 28, PABP FP inh 6, eIF4H FP inh -1, Rce1 inh inactive, MT1-MMP act inh 2 and MT1-MMP act inh RFP -6.
`COc1ccc(C(CNC(=O)c2oc3ccc(OC)cc3c2C)N2CCCC2)cc1` (stereo not drawn) gave Yeast UUG start 3, CSC inhib 12, Env fusion inh 32, Rce1 inh inactive, MT1-MMP act inh 0 and MT1-MMP act inh RFP 2.
Screening COc1ccc(OC)c(NC(=O)C(C#N)=Cc2ccco2)c1 returned Yeast UUG start 13, Env fusion inh 2, MT1-MMP act inh -7 and MT1-MMP act inh RFP 3.
For COc1ccc(-c2c(C)n([O-])c3c([n+]2=O)CCCC3)cc1OC the results were CSC inhib 1, PABP FP inh -5, eIF4H FP inh 3 and Rce1 inh inactive.
For NC(=O)SCC(=O)Nc1cccc(Cl)c1 the results were CSC inhib -13, PABP FP inh 2, eIF4H FP inh -8, Rce1 inh inactive, MT1-MMP act inh -1 and MT1-MMP act inh RFP 4.
N#Cc1nc(-c2ccco2)oc1N1CCN(C(c2ccccc2)c2ccccc2)CC1 was read as Yeast UUG start -16, CSC inhib -7, PABP FP inh -4, eIF4H FP inh -19, Rce1 inh active, MT1-MMP act inh -8 and MT1-MMP act inh RFP -6.
For CC(C)OCCCn1c(SCC(=O)N2CCCC2=O)nc2ccccc2c1=O the results were Yeast UUG start -4, CSC inhib -6, Env fusion inh -15, Rce1 inh inactive, MT1-MMP act inh 1 and MT1-MMP act inh RFP 2.
`Cc1ccc(CNC(=O)CCCC(=O)c2ccccc2)cc1` gave Yeast UUG start -12, CSC inhib -1, Env fusion inh -13, PABP FP inh 0, eIF4H FP inh 1, Rce1 inh inactive, MT1-MMP act inh 4 and MT1-MMP act inh RFP 7.
`O=c1[nH]n(-c2ccc(Cl)cc2)c2ncccc12` gave Yeast UUG start -20, CSC inhib 0, Env fusion inh -67, PABP FP inh 13, eIF4H FP inh -4, Rce1 inh inactive, MT1-MMP act inh 3 and MT1-MMP act inh RFP 5.
For COc1ccc(/C=N/NC(=O)CCc2n[nH]c(=O)[nH]c2=O)cc1O the results were Yeast UUG start -19, CSC inhib -4, Env fusion inh 5, PABP FP inh 2, eIF4H FP inh -1, Rce1 inh inactive, MT1-MMP act inh 2 and MT1-MMP act inh RFP 2.
For O=C(CSc1nnc(Nc2ccccc2)s1)NC1CC1 the results were Yeast UUG start -9, CSC inhib -2, Env fusion inh -14, MT1-MMP act inh 3 and MT1-MMP act inh RFP 4.
Screening COc1ccccc1C(=O)Nc1nc(N)n(-c2ccccc2)n1 returned Yeast UUG start -14, CSC inhib -11, PABP FP inh 10, eIF4H FP inh -9, Rce1 inh inactive, MT1-MMP act inh 2 and MT1-MMP act inh RFP 4.
Screening Cc1ccc(C(=O)N2CCN(c3ccccn3)CC2)cc1Cl returned Yeast UUG start -9, CSC inhib 1, Env fusion inh -22, PABP FP inh 0, eIF4H FP inh -5, MT1-MMP act inh -2 and MT1-MMP act inh RFP 0.
`COc1ccc(OC)c(NC(=O)Nc2cc(C(=O)O)ccc2C)c1` gave Yeast UUG start -9, CSC inhib -6, Env fusion inh -3, PABP FP inh -2, eIF4H FP inh -2, Rce1 inh inactive, MT1-MMP act inh 1 and MT1-MMP act inh RFP 2.
CC1Cc2cc(S(=O)(=O)NCc3ccccc3)ccc2N1C(=O)C1CC1 (stereo not drawn) was read as Yeast UUG start -1, CSC inhib -11, Env fusion inh -16, Rce1 inh inactive, MT1-MMP act inh -2 and MT1-MMP act inh RFP -11.
Screening Cc1c(C(=O)NCc2ccc3c(c2)OCO3)oc2ccc(Br)cc12 returned Yeast UUG start -18, CSC inhib 5, Env fusion inh -16, PABP FP inh 1, eIF4H FP inh -4, Rce1 inh inactive, MT1-MMP act inh 10 and MT1-MMP act inh RFP 5.
`CSCCC(NC(=O)c1cccc(C)c1)C(=O)OCC(=O)NC(=O)c1cccn1C` (stereo not drawn) gave Yeast UUG start 11, CSC inhib -8, Env fusion inh -9, PABP FP inh 17, eIF4H FP inh -4, Rce1 inh inactive, MT1-MMP act inh 2 and MT1-MMP act inh RFP 5.

Assay outcomes deposited in PubChem BioAssay by several laboratories.
